INS promoter inh: TRM-6 insulin promoter activity inhibition | TRM-6 cells (human fetal islet line), insulin promoter-eGFP reporter, imaging; reporter expression induced with tamoxifen | inhibition, % at 2 µM | actives 0.9% (n = 130,000);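 active means inhibition above the mean plus 3 SD, with well images judged a real hit on visual review, cut at about 60% in these data, passing the limit was not always enough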
RGS16-Gao: regulators of human RGS16-Galphao interaction. binding response (% of control), % at 10 µM. actives 0.38% (n = 220,000). bead-based flow cytometry RGS16-Galphao binding, fluorescence; actives lie on both sides. O15492+P09471;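 active means below 25% or above 175%, edge rows of some plates excepted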;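 further: Galphao activated by GDP with aluminum fluoride before binding; 100% = wells without compound and 0% = beads without RGS; some results beyond the cut were filed as inactive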
Target sequence (O15492 whole entry, looked up): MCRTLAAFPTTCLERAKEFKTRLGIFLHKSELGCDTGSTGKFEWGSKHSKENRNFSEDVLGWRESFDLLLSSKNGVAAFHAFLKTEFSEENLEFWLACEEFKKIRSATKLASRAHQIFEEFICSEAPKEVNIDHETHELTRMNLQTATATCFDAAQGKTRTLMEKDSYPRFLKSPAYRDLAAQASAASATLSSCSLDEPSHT
Target sequence (P09471 whole entry, looked up): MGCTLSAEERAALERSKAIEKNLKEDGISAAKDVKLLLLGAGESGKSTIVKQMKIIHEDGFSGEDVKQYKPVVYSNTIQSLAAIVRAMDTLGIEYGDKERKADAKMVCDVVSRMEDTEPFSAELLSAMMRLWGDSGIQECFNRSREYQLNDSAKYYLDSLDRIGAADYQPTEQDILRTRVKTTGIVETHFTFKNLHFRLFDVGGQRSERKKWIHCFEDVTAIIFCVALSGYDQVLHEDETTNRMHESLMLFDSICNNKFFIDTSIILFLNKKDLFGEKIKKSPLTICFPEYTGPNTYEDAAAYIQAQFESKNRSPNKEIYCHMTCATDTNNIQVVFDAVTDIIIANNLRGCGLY
HSV augment: increases HSV replication in cells; HSV replication augmentation in cells, fold increase; maximum fold increase; actives 0.005% (n = 220,000); AID 1956;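 active means peak rise of 1.5-fold or more in the series; tested in PC3 cells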;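 further: first round at 10 µM; read as green reporter fluorescence; hits show the peak of a series up to 25 µM; 1 = signal of infected wells without compound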
GALR2 agonist: GALR2 (human) receptor agonism. actives 0.48% (n = 140,000). activation, %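 (tested at 5 µM)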. GALR2-expressing cells, agonist activation read-out. O43603;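 active means above mean plus 3 SD of all compounds, about 5% in these data, not always enough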;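 further: 0% = vehicle buffer wells and 100% = reference agonist at full effect; tested in CHO reporter cells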
Target sequence (O43603 whole entry, looked up): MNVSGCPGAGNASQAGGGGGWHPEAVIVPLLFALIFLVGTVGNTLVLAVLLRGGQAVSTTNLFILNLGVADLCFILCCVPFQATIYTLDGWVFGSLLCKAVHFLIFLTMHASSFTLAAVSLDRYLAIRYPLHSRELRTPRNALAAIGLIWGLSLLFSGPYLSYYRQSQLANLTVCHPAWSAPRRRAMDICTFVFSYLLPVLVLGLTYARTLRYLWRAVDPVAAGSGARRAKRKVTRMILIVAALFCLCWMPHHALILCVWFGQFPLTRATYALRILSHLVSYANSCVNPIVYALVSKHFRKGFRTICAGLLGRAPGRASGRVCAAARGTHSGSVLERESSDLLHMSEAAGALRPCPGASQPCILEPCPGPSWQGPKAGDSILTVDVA
PKD1 inh: inhibitors of human PKD1 kinase; Q15139; PKD1 kinase fluorescence polarization assay; inhibition, %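 (about 10 µM by stock and volumes)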; actives 0.056% (n = 200,000); AID 797;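 active means inhibition of 50% or more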;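 further: controls were vehicle for no effect and a reference inhibitor for full effect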
INS promoter inh cell count: also measured in INS promoter inh; calls as there; normalized cell count, %; measured here: cell count, toxicity; reference of the scale not given here;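 cells exposed to compound for 48 h; stained nuclei by imaging scaled within each plate; lower means fewer cells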
HSV augment primary fold: further read-out of HSV augment, marked with its call; fold increase; compound at 10 µM; measured here: primary screen fold increase 10 uM; tested in PC3 cells;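 GFP signal in the first replicate; 1 = infected wells without compound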
Active calls of the source: *; i = inactive; . = no result given. Rows were taken by chance, and some 1.1% of all compounds hit somewhere here.

SMILES	INS promoter inh	INS promoter inh cell count	RGS16-Gao	HSV augment	HSV augment primary fold	GALR2 agonist	PKD1 inh
CCOC(=O)c1ccc(N2CSC3=C(C#N)C(c4cccs4)CC(=O)N3C2)cc1 (stereo unspecified)	.	.	97	i	1	-2.1	-4
CCc1cc2c(SCc3nc4sc(C(C)=O)c(C)c4c(=O)[nH]3)ncnc2s1	.	.	82	i	1.2	.	.
Cc1ccc(NC(=S)NNC(=O)c2ccccc2OC(F)F)cc1	-2	100	100	.	.	0.2	-10
CCN(CC)CCC(=O)Nc1ccc2c(c1)N(C(=O)CN(CC)CC)c1ccccc1CC2	16	109	82	i	1	-2.7	0
COc1ccc(NC(=S)NC(NC(=O)C(C)C)C(Cl)(Cl)Cl)c([N+](=O)[O-])c1 (stereo unspecified)	.	.	94	i	0.98	-1.7	6
Fc1ccccc1N1CCN(Cc2nc(-c3ccccc3)no2)CC1	21	118	99	i	0.94	0.6	-10
O=C(O)CCCn1c(=S)[nH]c2c(sc3ccc([N+](=O)[O-])cc32)c1=O	-67	43	92	i	1.1	.	-2
COC(=O)C1=C(C)N(C)C(C)=C(C(=O)OC)C1c1ccncc1	43	94	94	i	1	5.0	4
Cc1cc(C(=O)Nc2ccc(C)c(S(=O)(=O)N3CCOCC3)c2)c(C)o1	-50	122	101	i	0.93	.	-5
CC1=NN(c2ccccc2)C(=O)C1=C(C)C	11	102	102	i	1.2	.	-12
N/C(CCS(=O)(=O)c1ccc(Cl)cc1)=N\OC(=O)c1ccc(Cl)cc1	.	.	100	i	0.72	.	.
CCn1c(SCC(=O)N2CCN(c3cccc(Cl)c3)CC2)nc2ccccc2c1=O	3	95	106	i	0.93	-1.4	-12
CCCCCCCCSc1nnc(/N=C/N(C)C)s1	.	.	101	i	1	.	.
O=c1cc(O)nc(SCc2ccccc2Cl)[nH]1	.	.	97	i	1	-1.7	6
CSc1c2c(nc3ncnn13)CCC2	10	95	103	i	0.97	-1.8	-7
COc1cccc(N/C(N)=N/c2nc(C(F)(F)F)cc(C(F)(F)F)n2)c1	33	126	102	i	1.1	.	4
CC(C)c1cc(C(=O)Nc2cccc(Cl)c2)no1	6	88	94	i	0.84	-2.7	-2
CC(=O)c1ccc(S(=O)(=O)N(Cc2cc3cc4c(cc3[nH]c2=O)OCCO4)CC2CCCO2)cc1 (stereo unspecified)	-15	53	98	i	0.89	-0.5	-5
Cc1ccc2nc(-c3cccc(S(=O)(=O)N(C)C)c3)cn2c1	.	.	100	i	0.85	0.5	-1
CCOc1ccccc1NC(=S)N(CCN(C)C)C(C)c1ccncc1 (stereo unspecified)	7	65	211	i	0.91	.	-4
N#Cc1c(NC(=O)COC(=O)c2ccc(F)cc2)sc2c1CCC2	.	.	95	i	0.97	-0.7	-5
Nc1nonc1NC(=O)NN=C1CCCCC1	20	110	107	i	0.93	-0.3	-5
COc1ccccc1CNC(=O)C1(NC(=O)Nc2ccc(C)cc2)CCCCC1	-82	94	38	i	1	.	0
CN(C)c1ccc(C=Nc2ccccc2C(N)=O)cc1	25	183	97	.	.	-1.7	-3
CC(C)c1ccc(NC(=O)CSc2n[nH]c(=O)n2-c2ccc3c(c2)OCCO3)cc1	.	.	92	i	0.97	.	.
CC1(C2CC(C(F)(F)F)n3nc(C(=O)O)cc3N2)CC1 (stereo unspecified)	.	.	109	i	1	.	-4
Cc1cccc(NC(=O)c2ccoc2C)n1	14	89	90	i	0.87	-1.7	-3
CCCC(=O)Nc1ccc(C(=O)NCC2CCCO2)cc1 (stereo unspecified)	-13	77	52	i	0.79	-0.5	-9
Cc1ccc2nc(SCc3nc4c(cnn4-c4ccccc4)c(=O)[nH]3)[nH]c2c1	.	.	113	.	.	-2.4	10
Cc1ccc(N(CC(=O)NC(C)(C)C)C(=O)CNC(=O)c2cccs2)c(C)c1	.	.	130	i	1	.	-2
COc1ccc(/C(N)=N/OC(=O)Cc2ccccc2OC)cc1	27	96	92	i	0.93	-1.7	-14
CCc1ccc(/C(C)=N/Nc2cc(Cl)nc(C)n2)cc1	-14	107	104	i	1.1	-2.5	-3
CNc1ccc(Br)cc(C(=O)/C=C/c2cccc(OC)c2OC)c1=O	30	134	110	i	1.1	-2.6	20
O=C(OCC(=O)c1cccs1)C1=COCCO1	-4	154	104	i	0.95	-0.1	-8
Cc1ccc(C)c(-c2cc(C(=O)Nc3nccs3)c3ccccc3n2)c1	9	92	99	i	0.83	-0.2	-7
CC(C)n1c(O)c(/C=C2\C=NN=C2c2ccccc2)sc1=S	.	.	101	i	0.91	.	.
CCCNC(=O)OC[C@H]1O[C@H](CCO/N=C/c2ccc(C(=O)N3[C@H](c4ccc(C)cc4)[C@@H](C)CC[C@H]3C(=O)OC)cc2)C=C[C@@H]1Oc1ccc(OC)cc1	24	84	103	.	.	-1.6	1
N#CCN1CCN(CCC(=O)Nc2ccc(OCc3ccccc3)cc2)CC1	38	71	102	i	0.98	-1.6	-2
O=C(NCCC1=CCCCC1)c1ccc(Cl)c(S(=O)(=O)N2CCOCC2)c1	-142	131	102	i	0.88	0.8	-10
CC1C=Cc2ccccc2N1C(=O)c1ccccc1 (stereo unspecified)	.	.	101	i	0.95	-1.9	-16
O=C(/C=C/c1ccc(Cl)cc1)Nc1ccc(S(=O)(=O)Nc2ncccn2)cc1	.	.	83	i	0.86	.	-6
COC(=O)c1cc(=O)n(-c2ccccc2)c(=Nc2ccccc2)s1	5	74	100	i	0.62	0.9	-4
O=S(=O)(Nc1cccc(S(=O)(=O)N2CCOCC2)c1)c1ccc(Cl)s1	.	.	111	i	0.9	.	2
CCOc1ccc2c(c1)-c1c(ssc1=S)C(C)(C)N2C(=O)CSC1=NCCS1	-12	84	101	i	0.85	-2.0	-2
CCCc1nc(NC(C)=O)c(C#N)c(-c2ccco2)c1CC	.	.	89	i	0.99	-1.2	-4
N#Cc1c(-c2ccccc2)nc(N2CCOCC2)[nH]c1=O	-306	57	116	i	1.1	-1.3	0
COc1cc(/C=C(\C#N)c2[nH]nc(N)c2C#N)cc(OC)c1O	-35	128	105	i	1.2	-0.5	2
CC(Cc1ccccc1)C(=O)N(C)Cc1ccccc1 (stereo unspecified)	14	120	103	i	0.93	-2.4	-9
CCC(=O)c1c[nH]c(C(=O)NCC2CCCO2)c1 (stereo unspecified)	-26	91	114	i	0.9	-1.7	-8
CC(=O)c1cc2c(cc1NS(=O)(=O)c1ccccc1F)OCO2	.	.	92	i	0.97	.	-11
C[C@@H]1CN(C(=O)c2nc3ccc(Cl)cn3c2CN[C@H]2CCCCNC2=O)C[C@H](C)O1	0	116	105	i	0.94	.	-1
O=C(Nc1cccc(S(=O)(=O)N2CCOCC2)c1)c1ccco1	-32	92	99	i	1.2	-0.9	-8
O=C(c1cccs1)n1cc(C(=S)N2CCOCC2)c2ccccc21	-21	80	98	i	0.91	-1.5	3
CC1(C)C(C=C(Cl)Cl)C1C(=O)N(Cc1ccc(Cl)cc1)C1CCS(=O)(=O)C1 (stereo unspecified)	-23	113	96	i	1	-0.2	1
CN(C)c1ccc(NC(=O)c2cccc(C(=O)Nc3ccc(N(C)C)cc3)n2)cc1	16	157	82	i	0.79	-1.3	8
CN1CCN(CC(=O)Nc2c(C#N)cnn2-c2ccccc2)CC1	.	.	101	i	1.4	.	.
N/C(=N\N=C\c1ccc(O)cc1)c1nonc1N	.	.	81	i	0.86	.	0
COc1ccc(-c2[nH]ncc2CN2CCCO2)cc1F	.	.	99	i	1	.	-7
Cn1c(O)c(N=NC(=O)c2cccc(S(=O)(=O)N3CCCCC3)c2)c2ccccc21	3	97	104	i	0.86	0.7	5
O=C(Cc1cccc(C(F)(F)F)c1)NCc1cccc(Cl)c1	.	.	104	i	1	0.4	-11

Pulled by structure from the entries so far:
SMILES	INS promoter inh	INS promoter inh cell count	RGS16-Gao	HSV augment	HSV augment primary fold	GALR2 agonist	PKD1 inh
COc1ccc(/C(N)=N/OC(=O)Cc2ccccc2OC)cc1	27	96	92	i	0.93	-1.7	-14
Cc1ccc(C)c(-c2cc(C(=O)Nc3nccs3)c3ccccc3n2)c1	9	92	99	i	0.83	-0.2	-7
O=C(Cc1cccc(C(F)(F)F)c1)NCc1cccc(Cl)c1	.	.	104	i	1	0.4	-11
Cn1c(O)c(N=NC(=O)c2cccc(S(=O)(=O)N3CCCCC3)c2)c2ccccc21	3	97	104	i	0.86	0.7	5

(next part)
SMILES	INS promoter inh	INS promoter inh cell count	RGS16-Gao	HSV augment	HSV augment primary fold	GALR2 agonist	PKD1 inh
NC(=O)N/N=C/c1cn(CC(=O)Nc2ccc(F)cc2)c2ccccc12	.	.	110	i	0.88	.	.
COc1ccc(NC(=S)Nc2ccc(Oc3ccccc3)cc2)cc1	40	94	120	i	0.87	-0.7	15
CCN(CC)CCCNC(=S)N(Cc1cccnc1)Cc1cc2cc(C)cc(C)c2[nH]c1=O	56	114	104	i	0.88	.	-7
O=C(Cn1cnc2ccccc2c1=O)c1ccc(Cl)cc1	.	.	96	i	1	.	1
Cc1cccc(C2C3=C(Nc4[nH]n(-c5ccccc5)c(=O)c42)c2ccccc2C3=O)c1 (stereo unspecified)	-24	87	106	i	1	-1.0	-6
CC(C)(C)OC(=O)N[C@@H](Cc1ccccc1)c1nnc(S(=O)(=O)Cc2cccc(F)c2)o1	-200	12	85	i	0.76	2.6	-1
CC(C)CNc1nc(Oc2ccc(=O)n(-c3ccccc3)n2)nc(N2CCOCC2)n1	.	.	96	i	0.92	-1.1	0
COc1ccc(OCc2nnc(SCC(=O)NCc3ccco3)o2)cc1	.	.	96	i	0.95	-0.2	9
Cc1ccc(-c2nc(CS(=O)CC(=O)NCCC(C)C)c(C)o2)cc1 (stereo unspecified)	.	.	98	i	1.2	-1.8	-4
Cn1cc(-c2nnnn2-c2ccc(Cl)cc2)c(=O)c2ccccc21	-4	108	357	i	0.87	-1.2	-9
Cc1occc1C(=O)N/N=C/C1=C(N2CCOCC2)C(=C\c2ccc(Cl)cc2)/CC1	.	.	99	i	1.4	-0.9	-9
Cc1ccc2nc(NC3=NC(CC(=O)O)C(=O)N3)nc(C)c2c1 (stereo unspecified)	.	.	103	i	0.91	.	0
Cc1ccc(C23CC4CC(CC(NC(=O)N5CCN(C)CC5)(C4)C2)C3)cc1	62	98	87	i	0.99	-0.8	0
COc1ccc(CCn2c(SCCN3CCCCC3)nc3ccccc3c2=O)cc1OC	.	.	72	i	0.76	.	-7
COC(=O)c1[nH]c2cccc(OC)c2c1NC(=O)CCN1CCN(c2cccc(Cl)c2)CC1	-47	67	122	i	0.94	-0.1	-1
COc1ccc(CNC(=O)C23CN(Cc4ccccc4)CC2C(c2ccc([N+](=O)[O-])cc2)=NO3)cc1 (stereo unspecified)	-7	110	94	i	0.73	-1.0	-7
Cc1cccc(-c2nnc(SCC#N)n2-c2cccc(Cl)c2)c1	-16	100	93	i	0.97	1.5	6
Cc1ccc(S(=O)(=O)N/N=C/c2ccc(OS(=O)(=O)c3ccc(C)c([N+](=O)[O-])c3)cc2)cc1	-30	84	89	i	0.89	-0.8	-4
CC(C)Oc1ccc(NC(=O)Oc2ccccc2)cc1	.	.	98	i	0.96	-2.7	-4
COc1ccc(C2CCCN2C(=O)Nc2ccc(Cl)cc2)cc1OC (stereo unspecified)	.	.	96	i	0.65	-3.0	2

An excerpt of these results, with values under each structure:
Below each SMILES: INS promoter inh | INS promoter inh cell count | RGS16-Gao | HSV augment | HSV augment primary fold | GALR2 agonist | PKD1 inh
Cc1ccc(C23CC4CC(CC(NC(=O)N5CCN(C)CC5)(C4)C2)C3)cc1
  62 | 98 | 87 | i | 0.99 | -0.8 | 0
NC(=O)N/N=C/c1cn(CC(=O)Nc2ccc(F)cc2)c2ccccc12
  . | . | 110 | i | 0.88 | . | .
Cc1ccc(S(=O)(=O)N/N=C/c2ccc(OS(=O)(=O)c3ccc(C)c([N+](=O)[O-])c3)cc2)cc1
  -30 | 84 | 89 | i | 0.89 | -0.8 | -4

(further entries)
SMILES	INS promoter inh	INS promoter inh cell count	RGS16-Gao	HSV augment	HSV augment primary fold	GALR2 agonist	PKD1 inh
COCC(=O)N(CCN(C)C)Cc1cc2cc3c(cc2nc1Cl)OCO3	.	.	102	i	1	.	-9
CCCN(C(=O)Cc1nc(N)n[nH]1)C1(C(=O)Nc2ccccc2C)CCCCC1	-11	53	99	i	0.99	-2.2	-3
CCOC(=O)CSc1nc2cccnc2n1C	.	.	107	i	1.1	.	0
CCOC(=O)N1CCN(C(=O)CSc2nc3c(cnn3-c3ccccc3)c(=O)[nH]2)CC1	.	.	100	i	0.75	-1.0	-21
Cc1ccccc1S(=O)(=O)NC1OC(=O)C(Oc2ccccc2)=C1Br (stereo unspecified)	-7	95	100	i	0.87	.	0
Cc1ccccc1OCCNC(=O)c1ccccc1Sc1ccccc1C#N	-17	72	97	i	0.89	-0.1	9
